Vaccinia inh = blocks a specific stage of Vaccinia orthopoxvirus infection; actives 0.01% (n = 89,000); activity change (mCherry), % (concentration not given with the values); AID 1053133; Vaccinia-infected cells, mCherry/Venus stage reporter fluorescence; stronger effect = lower value; some inactives read as strong as hits;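 active = mCherry past -33% and 40 or more points under the early reporter, replicates agreeing; inconclusive = past -33% without that gap or agreement; tested in A549 cells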;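 also: scaled between vehicle wells and reference inhibitor wells; 23 nL library stock went into each well; one replicate is shown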
Vaccinia inh Venus = also measured in Vaccinia inh; calls as there; activity change (Venus), %; measured here: Venus reporter, other viral stage;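 negative = less Venus signal; first of two replicates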
* hit, by the source's call; u = inconclusive; x = no result given.

Start of the data: the first 6 compounds as a preview:
SMILES | Vaccinia inh | Vaccinia inh Venus
C[C@@H]1CN([C@@H](C)CO)C(=O)c2cc(NC(=O)Nc3ccc4c(c3)OCO4)ccc2O[C@@H](C)CCCCO[C@@H]1CN(C)S(=O)(=O)c1cn(C)cn1 | 25.5 | 6.9
O=C(Cc1ccccn1)N1CCCCN2[C@H](CO)[C@H](c3ccc(-c4ccccc4F)cc3)[C@@H]2C1 | -4.2 | 5.8
O=C(Nc1cc(F)ccc1F)N[C@@H]1C=C[C@@H](CC(=O)N2CCc3ccccc3C2)O[C@@H]1CO | -17.7 | -0.1
C[C@@H]1CN([C@H](C)CO)C(=O)c2cc(C#CC3(O)CCCC3)cnc2O[C@@H]1CN(C)C(=O)C1CCOCC1 | 35.2 | 4.6
C[C@H]1CN([C@@H](C)CO)C(=O)c2cc(-c3ccc(F)cc3)cnc2O[C@H]1CN(C)C(=O)c1ccccc1F | 16.8 | 0.7
C[C@H]1CN([C@@H](C)CO)C(=O)Cc2cc(NC(=O)Nc3ccccc3)ccc2O[C@H]1CN(C)C(=O)Nc1cccc2ccccc12 | 24.9 | 19.8

Main list, from the start:
SMILES | Vaccinia inh | Vaccinia inh Venus
C[C@@H]1CN([C@@H](C)CO)C(=O)c2cc(NC(=O)Nc3ccc4c(c3)OCO4)ccc2O[C@@H](C)CCCCO[C@@H]1CN(C)S(=O)(=O)c1cn(C)cn1 | 25.5 | 6.9
O=C(Cc1ccccn1)N1CCCCN2[C@H](CO)[C@H](c3ccc(-c4ccccc4F)cc3)[C@@H]2C1 | -4.2 | 5.8
O=C(Nc1cc(F)ccc1F)N[C@@H]1C=C[C@@H](CC(=O)N2CCc3ccccc3C2)O[C@@H]1CO | -17.7 | -0.1
C[C@@H]1CN([C@H](C)CO)C(=O)c2cc(C#CC3(O)CCCC3)cnc2O[C@@H]1CN(C)C(=O)C1CCOCC1 | 35.2 | 4.6
C[C@H]1CN([C@@H](C)CO)C(=O)c2cc(-c3ccc(F)cc3)cnc2O[C@H]1CN(C)C(=O)c1ccccc1F | 16.8 | 0.7
C[C@H]1CN([C@@H](C)CO)C(=O)Cc2cc(NC(=O)Nc3ccccc3)ccc2O[C@H]1CN(C)C(=O)Nc1cccc2ccccc12 | 24.9 | 19.8
CN(C)CC#Cc1ccc([C@@H]2[C@@H](CO)N3C(=O)CN(C(=O)c4cccc(F)c4)C[C@H]23)cc1 | 2.3 | 4.4
CC=Cc1ccc2n(c1=O)C[C@H]1[C@H](CO)[C@@H](C(=O)N(C)C)N(CC3CC3)[C@@H]21 (mixture of isomers) | 6.6 | 2.8
CO[C@@H](CN(C)S(=O)(=O)c1ccc(C)cc1)[C@@H](C)CN(C(=O)Nc1ccccc1F)[C@@H](C)CO | -7.5 | -0.1
C[C@@H]1CN([C@@H](C)CO)S(=O)(=O)c2ccc(C#C[C@@H](C)O)cc2O[C@@H]1CN(C)C(=O)C1CCC1 | 7.9 | 5.3
COc1cccc(CNC(=O)C[C@H]2CC[C@H](NC(=O)C3CCOCC3)[C@H](CO)O2)c1 | -3.0 | 2.9
Cc1noc(C)c1S(=O)(=O)N(C)C[C@H]1OCCCC[C@@H](C)Oc2ccc(NC(=O)Nc3ccc(F)cc3)cc2C(=O)N([C@H](C)CO)C[C@@H]1C | -0.8 | -5.0
C[C@@H]1CN([C@@H](C)CO)C(=O)c2cc(NS(=O)(=O)c3cccs3)ccc2O[C@@H]1CN(C)CC1CCCCC1 | 4.4 | 1.1
C[C@@H]1CN([C@@H](C)CO)C(=O)c2cc(C#CCc3ccccc3)cnc2O[C@@H]1CN(C)C(=O)C1CCCCC1 | -25.2 | -18.8
CC(C)CC#Cc1ccc2c(c1)O[C@@H](CN(C)C(=O)C1CCOCC1)[C@H](C)CN([C@H](C)CO)S2(=O)=O | -6.1 | -4.0

Entries of single compounds, quoted from the list. Order of screens: Vaccinia inh	Vaccinia inh Venus
O=C(Nc1cc(F)ccc1F)N[C@@H]1C=C[C@@H](CC(=O)N2CCc3ccccc3C2)O[C@@H]1CO as listed: -17.7	-0.1
O=C(Cc1ccccn1)N1CCCCN2[C@H](CO)[C@H](c3ccc(-c4ccccc4F)cc3)[C@@H]2C1 as listed: -4.2	5.8

Following part.
SMILES | Vaccinia inh | Vaccinia inh Venus
Cc1noc(C)c1NC(=O)Nc1cccc2c1O[C@H](CN(C)Cc1ccc(C(=O)O)cc1)[C@H](C)CN([C@@H](C)CO)C2=O | 6.7 | 2.3
C[C@H](CO)N1C[C@H](C)[C@H](CN(C)S(=O)(=O)c2ccc(C#N)cc2)Oc2ncc(Br)cc2C1=O | -2.1 | -3.3
C[C@@H]1CN([C@@H](C)CO)C(=O)c2cccc(NC(=O)c3ccncc3)c2O[C@H]1CN(C)C | 19.3 | 11.0
COc1ccc(S(=O)(=O)Nc2ccc3c(c2)C(=O)N([C@@H](C)CO)C[C@H](C)[C@H](CN(C)C(=O)Nc2c(C)noc2C)OCCCC[C@H](C)O3)cc1 | 8.1 | 9.5
CCCNC(=O)C[C@@H]1CC[C@H]2[C@@H](COc3ccc(NC(=O)C4CCOCC4)cc3C(=O)N2C)O1 | 15.3 | 16.0
COc1ccccc1-c1ccc2c(c1)O[C@H](CN(C)CC1CCOCC1)[C@@H](C)CN([C@@H](C)CO)S2(=O)=O | -19.2 | -15.2
O=C(NCc1ccccc1)C1=C[C@@H](c2ccc(Br)cc2)C[C@@H](OCc2ccc(CO)cc2)O1 | -23.9 | -19.7
OC[C@@H]1[C@@H](c2ccc(-c3ccccc3F)cc2)[C@H]2CN(Cc3cncnc3)CCCCN12 | 1.5 | 2.5
CCCNC(=O)Nc1ccc2c(c1)C(=O)N(C)C[C@H](OC)[C@H](C)CN(C)[C@@H](C)CO2 | 8.1 | 8.3
C[C@H]1CN([C@@H](C)CO)S(=O)(=O)c2ccc(C3=CCCC3)cc2O[C@H]1CN(C)C(=O)CN(C)C | -13.0 | -5.9
COc1ccc(CNC(=O)C[C@@H]2C=C[C@H](NC(=O)CN(C)C)[C@@H](CO)O2)cc1 | 7.7 | 16.5
C/C=C/c1ccc2c(c1)O[C@@H](CN(C)C(=O)c1ccccc1F)[C@@H](C)CN([C@H](C)CO)S2(=O)=O | -6.6 | -4.1
O=S(=O)(c1ccc(F)cc1)N1CCCCN2[C@H](CO)[C@H](c3ccc(C#CC4CCCC4)cc3)[C@@H]2C1 | u | x
C[C@H](CO)N1C[C@H](C)[C@@H](CN(C)C(=O)c2ccc(F)cc2)Oc2cc(-c3cccc(C#N)c3)ccc2S1(=O)=O | -12.4 | -13.0
CNC(=O)C[C@H]1CC[C@@H]2[C@H](COc3ccc(NC(=O)Nc4ccccc4F)cc3C(=O)N2C)O1 | 4.4 | -10.3
COCC#Cc1cnc2c(c1)C(=O)N([C@H](C)CO)C[C@@H](C)[C@@H](CN(C)C(=O)C1CC1)O2 | 8.9 | 5.9
CCCc1cn(CC[C@@H]2CC[C@H](NC(=O)C3CC3)[C@H](CO)O2)nn1 | 5.8 | 4.3
CO[C@@H]1CN(C)C(=O)c2ccc(NC(=O)NC3CCCCC3)cc2OC[C@@H](C)N(CC2CC2)C[C@H]1C | -9.9 | -9.0
CCCNC(=O)C[C@H]1C[C@@H]2c3cc(NC(=O)C4CCOCC4)ccc3O[C@@H]2[C@@H](CO)O1 | 7.7 | 5.1
CNC[C@H]1Oc2ccc(NS(=O)(=O)c3ccccc3)cc2C(=O)N([C@H](C)CO)C[C@H]1C | 14.1 | 5.4
COc1ccccc1C(=O)N1C[C@@H]2[C@H](c3ccccc31)[C@H](CO)N2C(=O)Nc1ccccc1 | 17.9 | 9.0
CC(C)NC(=O)N(C)C[C@@H]1Oc2ccc(NC(=O)Nc3ccc(C(F)(F)F)cc3)cc2C(=O)N([C@@H](C)CO)C[C@@H]1C | -3.0 | -5.8
C[C@H](O)C#Cc1ccc([C@H]2[C@@H](CO)N3CCCCN(S(=O)(=O)Cc4ccccc4)C[C@H]23)cc1 | -9.5 | -1.7
O=C(O)[C@@H]1[C@@H](CO)[C@@H]2Cn3c(ccc(-c4ccccc4F)c3=O)[C@H]1N2C(=O)c1cccnc1 | 10.5 | 11.5
C[C@@H](O)C#Cc1ccc([C@@H]2[C@@H](CO)N3CCCCN(CC4CC4)C[C@H]23)cc1 | 18.1 | 9.1
C[C@@H]1CN([C@H](C)CO)C(=O)c2cccc(NC(=O)c3cnccn3)c2O[C@H]1CN(C)Cc1ccccc1 | -9.6 | -7.6
COc1ccc(CCNC(=O)[C@@]2(Sc3ccc(C)cc3)CC(=O)N(C3CCCCC3)[C@@H]2c2ccc(CO)cc2I)cc1 | -10.7 | -7.1
C[C@@H]1CCCCO[C@@H](CN(C)C(=O)c2ccncc2)[C@H](C)CN([C@H](C)CO)C(=O)c2cc(NS(=O)(=O)c3ccc(Cl)cc3)ccc2O1 | 13.6 | 8.2
CCCNC(=O)N1[C@H](C#N)[C@H](c2ccc(C#Cc3ccc(F)cc3)cc2)[C@H]1CO | u | x
COc1ccc(NC(=O)Nc2ccc3c(c2)[C@@H]2C[C@@H](CC(=O)N[C@@H](C)c4ccccc4)O[C@@H](CO)[C@@H]2O3)cc1 | 4.8 | -2.6
COc1ccc(CN(C)C[C@H]2Oc3ccc(NC(=O)C4CC4)cc3CC(=O)N([C@H](C)CO)C[C@H]2C)cc1 | -11.2 | -9.1
O=C(NCC[C@@H]1CC[C@H](NS(=O)(=O)c2cccc(F)c2)[C@H](CO)O1)c1cnccn1 | 0.1 | 9.9
COc1ccc2c3c(n(C)c2c1)[C@H](CO)N(C(=O)C1CCC1)CC31CCN(C(=O)Nc2cccc(F)c2)CC1 | 7.2 | 1.5
CCCC#Cc1ccc([C@@H]2[C@@H](C#N)N(C(=O)C3CCC3)[C@@H]2CO)cc1 | 1.4 | 5.7
C[C@@H]1CCCCO[C@@H](CN(C)S(=O)(=O)c2ccc(Cl)cc2)[C@@H](C)CN([C@@H](C)CO)C(=O)c2cc(NS(C)(=O)=O)ccc2O1 | 18.5 | 14.6
O=C(C[C@@H]1C[C@@H]2c3cc(NC(=O)c4cccnc4)ccc3O[C@@H]2[C@H](CO)O1)NCc1ccncc1 | 15.1 | 12.3
CCCNC(=O)N(C)C[C@H]1Oc2cc(C#Cc3ccccn3)ccc2S(=O)(=O)N([C@H](C)CO)C[C@H]1C | -1.5 | -2.7
C[C@H]1CN([C@@H](C)CO)S(=O)(=O)c2ccc(C#Cc3ccccc3F)cc2O[C@H]1CN(C)C | u | x
COC(=O)[C@@]1(CCS(=O)(=O)c2ccccc2)COC(c2ccc(OCCCO)cc2)=N1 | 8.1 | 6.9
COc1cccc(-c2ccc3c(c2)[C@H]2[C@H](CCN2C(=O)c2cnccn2)[C@H](CO)N3)c1 | u | x
C/C=C/c1ccc([C@@H]2[C@@H](CN(C)C(=O)CC)N(C(=O)NCCC)[C@H]2CO)cc1 | -7.4 | -0.9
COc1ccc(-c2ccc3n(c2=O)C[C@H]2[C@H](CO)[C@@H](C(=O)N4CCN(C)CC4)N[C@@H]32)cc1 | 2.8 | -9.4
O=C(c1ccc2c(c1)OCO2)N1CC(=O)N2[C@@H](CO)[C@@H](c3ccc(C#CCC4CCCC4)cc3)[C@@H]2C1 | u | x
C[C@@H]1CCCCO[C@@H](CN(C)C(=O)Nc2ccc(F)cc2)[C@@H](C)CN([C@H](C)CO)C(=O)c2cc(N(C)C)ccc2O1 | -3.7 | 2.0
Cc1noc(C)c1C(=O)N(C)C[C@@H]1OCc2ccccc2-c2ccccc2C(=O)N([C@H](C)CO)C[C@H]1C | 7.0 | 0.2
C[C@H]1CN([C@@H](C)CO)C(=O)c2cc(NC(=O)C3CC3)ccc2O[C@H]1CN(C)C | 16.2 | 1.5
C[C@@H]1CN([C@H](C)CO)C(=O)c2cccc(NC(=O)c3ccncc3)c2O[C@H]1CN(C)Cc1ccc2c(c1)OCO2 | -5.9 | -2.9
C[C@@H]1CN([C@H](C)CO)C(=O)c2cccc(NC(=O)Nc3ccc(C(F)(F)F)cc3)c2O[C@H]1CN(C)S(C)(=O)=O | -5.1 | -8.0
COc1ccc(S(=O)(=O)Nc2ccc3c(c2)C(=O)N([C@H](C)CO)C[C@@H](C)[C@H](CN(C)S(=O)(=O)c2cccs2)O3)cc1 | 21.8 | 10.5
COc1ccc(NC(=O)N(C)C[C@@H]2OCCCC[C@@H](C)Oc3ccc(NC(=O)CCCN(C)C)cc3C(=O)N([C@@H](C)CO)C[C@H]2C)cc1 | 19.1 | 13.3
C[C@H]1CN([C@@H](C)CO)C(=O)c2cc(C#CCN(C)C)cnc2O[C@H]1CN(C)S(=O)(=O)c1ccccc1 | 0.2 | -1.5
COc1cccc(-c2ccc(C3[C@H]4CNC[C@@H]3N4CC3CCOCC3)cc2)c1 (stereo partly drawn) | -1.8 | -3.9
CCCC#Cc1ccc2c(c1)O[C@H](CN(C)C(=O)C1CCC1)[C@@H](C)CN([C@@H](C)CO)S2(=O)=O | u | x
O=C(CCN1CCCCC1)NCC[C@H]1CC[C@@H](NC(=O)C2CCC2)[C@@H](CO)O1 | 0.6 | 15.5
COC(=O)C[C@H]1CC[C@H]2[C@@H](COc3ccc(NC(=O)Cc4cccs4)cc3C(=O)N2C)O1 | 6.2 | 9.0
C[C@@H]1CN([C@@H](C)CO)S(=O)(=O)c2ccc(Br)cc2O[C@H]1CN(C)C(=O)CN(C)C | 11.4 | 2.4
C[C@H](CO)N1C[C@H](C)[C@H](CN(C)C(=O)CN(C)C)Oc2cc(C3=CCCC3)ccc2S1(=O)=O | -20.9 | -13.5
C[C@@H]1CN([C@@H](C)CO)C(=O)c2cc(-c3ccc(C(=O)N(C)C)cc3)cnc2O[C@@H]1CN(C)C | 24.9 | 5.9
COc1ccc(NC(=O)Nc2ccc3c(c2)CC(=O)N([C@H](C)CO)C[C@@H](C)[C@@H](CN(C)C(=O)Nc2ccccc2)O3)cc1 | 20.6 | 10.4

These rows are one share of the data. The share of hits here may be higher or lower than overall.
